Screens as filed in PubChem.
HCMV UL50-53 inh = inhibitors of HCMV UL50-UL53 interaction, biochemical, HTRF; normalized percent inhibition; inhibition, % (no concentration beside the values); 0.15% of 190,000 active; AID 1918969, 2023;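 active = both replicates at 50% or more, plus weaker picks with an unusually low signal ratio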;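 also: stock transfer was 100 nL into about 20 µL; 0% = negative control wells and 100% = wells with untagged competitor protein; inactives centre near -12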
GIV Gai3 FP = inhibitors of GIV peptide binding to Galpha-i3, primary screen, biochemical, fluorescence polarization, FITC-GIV GBA peptide, rat Galphai3; Guanine nucleotide-binding protein G(i) subunit alpha-3 (Rattus norvegicus), P08753; 90 min; active compounds read low; scaled: aluminum fluoride 0%, vehicle 100%; percent of control (FP), % (no concentration beside the values); 0.42% of 210,000 active; AID 1224905, 2016;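 active = replicate mean at 85% of control or lower, very high polarization wells dropped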;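 also: wells of about 15 µL received 100 nL stock; the first replicate is given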
Target sequence (P08753 whole entry, looked up): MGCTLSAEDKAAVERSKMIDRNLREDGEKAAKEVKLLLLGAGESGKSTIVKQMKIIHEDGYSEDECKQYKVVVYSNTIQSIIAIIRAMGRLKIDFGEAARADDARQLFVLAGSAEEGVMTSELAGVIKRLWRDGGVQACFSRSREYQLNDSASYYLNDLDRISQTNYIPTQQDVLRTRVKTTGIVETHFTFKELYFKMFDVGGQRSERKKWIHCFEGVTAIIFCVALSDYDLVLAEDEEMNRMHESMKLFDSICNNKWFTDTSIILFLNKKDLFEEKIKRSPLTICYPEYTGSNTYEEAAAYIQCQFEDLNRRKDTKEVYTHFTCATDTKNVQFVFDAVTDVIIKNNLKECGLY
Sa growth 42C = S. aureus growth inhibition at 42 and 30 °C, primary screen, LtaS inhibitor project, RN4220, two temperatures | OD600, 20 h, 42 °C; active compounds read low | relative growth, % (no concentration beside the values) | 0.53% of 170,000 active | AID 720641, 2013;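 active = growth at 42 °C up to 50% and 20 or more points under that at 30 °C, or under 10% at both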;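 also: 300 nL library stock went into each well; scaled to the means of positive and negative controls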
Sa growth 42C second temp = also measured in Sa growth 42C; calls as there; relative growth, %; measured here: growth at 30 °C;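 optical density after 20 h as mean of two plates; 100% = untreated growth and lower means inhibition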
Active calls of the source: *; nt = no result given; & = joins results of further samples.

Below each compound: HCMV UL50-53 inh	GIV Gai3 FP	Sa growth 42C	Sa growth 42C second temp
COC(=O)c1sccc1NC(=O)N1CCCC1c1cccc(F)c1 (configuration not stated)
    -14	99	nt	nt
CCOC(=O)CN=C1NC(=O)C(c2ccccc2)(c2ccccc2)N1
    -28	107	94	88
C=CCOC(=O)C1=C(C)NC(SC)=C(C#N)C1c1ccccc1OC (configuration not stated)
    -44	nt	59	61
O=C(CCc1nc(-c2ccncc2)no1)Nc1ccccc1
    -14	106	nt	nt
O=C(CCCN1C(=O)c2cccc3cccc(c23)C1=O)N1CCN(Cc2ccc3c(c2)OCO3)CC1
    -82	105	nt	nt
COc1ccc(-n2ccnc(SCC(=O)Nc3cc(Cl)ccc3OC)c2=O)cc1
    7	100	nt	nt
Fc1ccc(-c2noc(-c3ccc(NC4CCCC4)nn3)n2)cc1
    -27	98	nt	nt
COc1cc(OC)c(NC(=O)c2cc3c(s2)-c2ccc(Cl)cc2SC3)cc1Cl
    -32	97	98	84
O=C(CN1C(=O)CCSc2ccccc21)NCCCc1ccccc1
    -4	102	106	87
CCOCCCNCc1ccc(-c2cccc(Cl)c2)o1
    -20	104	nt	nt
COc1ccc(CNC(=O)CSc2nc(C)cc(=O)[nH]2)cc1
    -28	nt	73	91
COc1cccc(C=C2C(=O)N(C)C(=S)N(C)C2=O)c1OC
    -3	102	97	44
CCOc1ccc(Nc2nc3ccccc3nc2Nc2ccc(OCC)cc2)cc1
    -9	111	97	96
Cc1nn(-c2ccccc2)c2c1C(c1cccnc1)C1=C(CC(C)(C)CC1=O)N2 (configuration not stated)
    -39	104	108	80
COC(=O)Nc1ccc(Cl)cn1
    -7	99	90	95
Cc1cccc(N2CCN(C(=O)c3cccc(-n4c(C)nc5cccnc54)c3)CC2C)c1 (configuration not stated)
    nt	102	128	88
COc1cccc(OC)c1C(=O)NCc1ccco1
    -18	106	116	85
CCC1Oc2ccccc2N(CC(=O)NCc2cc(OC)ccc2OC)C1=O (configuration not stated)
    nt	105	135	86
CCOC(=O)C1=C(C)N=C(SC)N(C(C)=O)C1c1ccccc1 (configuration not stated)
    -3	nt	81	90
O=C(Cn1c2ncccc2c(=O)n1-c1ccccc1)Nc1cccc(Cl)c1
    9	103	nt	nt
CCS(=O)(=O)N1CCc2cc(C(=O)N3CCN(c4ccc(OC)cc4)CC3)ccc21
    -6&0	100&108	94	94
Cc1ccc2c(c1)-c1c(cnn1CC(=O)Nc1ccc3c(C)cc(=O)oc3c1)CO2
    -12	99	104	92
CN1CCN(CCOc2ccccc2)CC1
    -7	nt	95	92
CCOc1ccc2cc(C3CC(c4ccc(C)cc4)=NN3C(C)=O)c(=O)[nH]c2c1 (configuration not stated)
    9	103	nt	nt
O=C(CN1CCN(c2ncnc3sc(-c4ccccc4)cc23)CC1)N1CCCC1
    -43	nt	106	97
COc1cc(-c2cc(C(=O)O)c3cc(Br)ccc3n2)cc(OC)c1OC
    -33	106	88	86
O=C(Nc1ccccc1-c1nc2ccccc2[nH]1)c1ccc(S(=O)(=O)N2CCCCC2)cc1
    9	106	nt	nt
CC1CC(C)(C)NC(=S)N1CC(=O)N1CCN(Cc2ccccc2)CC1 (configuration not stated)
    -24	101	85	85
Cc1ccc(S(=O)(=O)N(C)C(F)F)cc1
    7	100	93	75
CCOC(=O)c1sc(-c2ccccc2)nc1OC
    -4	106	102	93
CCOc1ccc(OCC)c(NS(=O)(=O)c2ccc3c(c2)CCN3C(=O)C2CCC2)c1
    -19	109	102	89
C#CCOC(=O)Nc1c(-c2ccccc2)noc1C
    -10	103	97	94
Cc1ccc(C)c(-c2ccc(=O)n(Cc3ccc(F)cc3Cl)n2)c1
    -11	103	85	64
COC(=O)c1c(NC(=O)CN(c2ccccc2)S(=O)(=O)N(C)C)sc2c1CCCC2
    -25	105	nt	nt
Cn1ccnc1C(=O)c1cc(=S)[nH]c2ccccc12
    -29	nt	66	73
CC(C(=O)Nc1ccc(C#N)cc1)N1CCN(c2ccc(O)cc2)CC1 (configuration not stated)
    -6	nt	99	85
COc1cccc(C(=O)N(Cc2ccco2)c2ccccn2)c1
    3	107	82	91
O=C(CN1CCN(Cc2ccc3c(c2)OCO3)CC1)N1c2ccccc2CCc2ccccc21
    5	97	86	49
O=C(Nc1ccccc1)c1ccc2c(c1)OCCO2
    -13	101	103	72
O=C(CSCCCn1c(=O)[nH]c2ccccc21)N1CCc2ccccc21
    -1	nt	92	93

24 structures out of the list, arranged by molar mass, largest number first:
Below each compound: HCMV UL50-53 inh	GIV Gai3 FP	Sa growth 42C	Sa growth 42C second temp
O=C(Nc1ccccc1-c1nc2ccccc2[nH]1)c1ccc(S(=O)(=O)N2CCCCC2)cc1
    9	106	nt	nt
O=C(CN1CCN(Cc2ccc3c(c2)OCO3)CC1)N1c2ccccc2CCc2ccccc21
    5	97	86	49
COC(=O)c1c(NC(=O)CN(c2ccccc2)S(=O)(=O)N(C)C)sc2c1CCCC2
    -25	105	nt	nt
CCOc1ccc(OCC)c(NS(=O)(=O)c2ccc3c(c2)CCN3C(=O)C2CCC2)c1
    -19	109	102	89
CCS(=O)(=O)N1CCc2cc(C(=O)N3CCN(c4ccc(OC)cc4)CC3)ccc21
    -6&0	100&108	94	94
Cc1cccc(N2CCN(C(=O)c3cccc(-n4c(C)nc5cccnc54)c3)CC2C)c1 (configuration not stated)
    nt	102	128	88
COc1cc(-c2cc(C(=O)O)c3cc(Br)ccc3n2)cc(OC)c1OC
    -33	106	88	86
O=C(CN1CCN(c2ncnc3sc(-c4ccccc4)cc23)CC1)N1CCCC1
    -43	nt	106	97
CCOc1ccc2cc(C3CC(c4ccc(C)cc4)=NN3C(C)=O)c(=O)[nH]c2c1 (configuration not stated)
    9	103	nt	nt
Cc1nn(-c2ccccc2)c2c1C(c1cccnc1)C1=C(CC(C)(C)CC1=O)N2 (configuration not stated)
    -39	104	108	80
O=C(Cn1c2ncccc2c(=O)n1-c1ccccc1)Nc1cccc(Cl)c1
    9	103	nt	nt
CC1CC(C)(C)NC(=S)N1CC(=O)N1CCN(Cc2ccccc2)CC1 (configuration not stated)
    -24	101	85	85
O=C(CSCCCn1c(=O)[nH]c2ccccc21)N1CCc2ccccc21
    -1	nt	92	93
Cc1ccc(C)c(-c2ccc(=O)n(Cc3ccc(F)cc3Cl)n2)c1
    -11	103	85	64
CCOC(=O)C1=C(C)N=C(SC)N(C(C)=O)C1c1ccccc1 (configuration not stated)
    -3	nt	81	90
COc1cccc(C(=O)N(Cc2ccco2)c2ccccn2)c1
    3	107	82	91
Cn1ccnc1C(=O)c1cc(=S)[nH]c2ccccc12
    -29	nt	66	73
CCOC(=O)c1sc(-c2ccccc2)nc1OC
    -4	106	102	93
COc1cccc(OC)c1C(=O)NCc1ccco1
    -18	106	116	85
C#CCOC(=O)Nc1c(-c2ccccc2)noc1C
    -10	103	97	94
O=C(Nc1ccccc1)c1ccc2c(c1)OCCO2
    -13	101	103	72
Cc1ccc(S(=O)(=O)N(C)C(F)F)cc1
    7	100	93	75
CN1CCN(CCOc2ccccc2)CC1
    -7	nt	95	92
COC(=O)Nc1ccc(Cl)cn1
    -7	99	90	95

(listing goes on)
Below each compound: HCMV UL50-53 inh	GIV Gai3 FP	Sa growth 42C	Sa growth 42C second temp
O=C1CC(CSc2nccc(-c3cccnc3)n2)=NN1c1ccc(Cl)cc1
    12	106	106	92
CCN(CC(=O)Nc1ccc(C#N)cc1)CC(=O)Nc1ccc2c(c1)OCCO2
    -22	nt	81	84
COCSC1=NC(c2ccc(SC)cc2)C(C(=O)OC(C)C)=C(C)N1 (configuration not stated)
    -1	nt	85	86
CCOC(=O)N1CCC(N2C(=O)c3ccc(C(=O)Nc4ccc(OC)cc4)cc3C2=O)CC1
    -25	105	100	68
COc1ccc(CNC(=O)c2ccc3nc(-c4ccc(F)cc4)c(-c4ccc(F)cc4)nc3c2)cc1
    nt	110	131	97
CC1=C(C(=O)Nc2ccccc2)C(c2ccc(F)cc2)n2nc(SCc3cc(C)ccc3C)nc2N1 (configuration not stated)
    nt	102	110	96
Cc1c(C)n(CC(O)CNCc2ccccc2)c2ccccc12 (configuration not stated)
    1	nt	95	91
CC(C)C(=O)N1CCN(c2nc3ccccc3o2)CC1
    4	106	102	93
CC(=O)OC1CCC(OC(C)=O)c2c1n([O-])c(C)c(C)[n+]2=O (configuration not stated)
    nt	94	96	86
CCNc1nc(C)cc(N2CCN(S(C)(=O)=O)CC2)n1
    -22	107	nt	nt
O=C(/C=C/c1ccccn1)NC(Cc1c[nH]c2ccccc12)C(=O)O (configuration not stated)
    -55	nt	90	74
Cc1[nH]c(-c2ccc(F)cc2)cc1C(=O)NC1CCCCC1
    nt	105	113	88
O=c1[nH]ccn(-c2ccc(F)c(Cl)c2)c1=O
    -47	98	nt	nt
Cc1noc(C)c1C(=O)n1cc2c(n1)-c1cc(F)ccc1SC2
    -21	98	97	90
CC1CC(Nc2ccccc2)c2ccccc2N1C(=O)CN1C(=O)c2ccccc2C1=O (configuration not stated)
    -20	99	nt	nt
O=C(NCc1ccc(S(=O)(=O)N2CCOCC2)s1)c1ccc(Cl)cc1
    -13	101	89	72
CCN1C(=S)SC(=O)C1=C1C=C(C)OC(C)=C1
    -5	nt	90	97
Cc1nn(S(C)(=O)=O)c(C)c1S(=O)(=O)N1CCCCC1
    -5	107	nt	nt
COCCn1c(-c2ccccc2)nc(=S)c2c1CCCC2
    -9	108	81	97
Cc1[nH]nc2c1C(c1ccc(C(C)C)cc1)N(c1ccc(Br)cc1)C2=O (configuration not stated)
    -13	99	nt	nt
Cc1cc(C)n(-c2nnc3c(n2)[nH]c2ccccc23)n1
    2	nt	89	100
Cc1ccc(NC(=O)CSc2nc3ccccc3n2Cc2cccnc2)cc1
    -21	104	nt	nt
C=CCOc1ccc(C(=O)Oc2cccc(-n3cnnn3)c2)cc1
    20	107	nt	nt
COc1cc(NC(=O)CC2C(=O)N(c3cccc(C)c3)C(=O)N2Cc2ccc(F)cc2)cc(OC)c1 (configuration not stated)
    nt	106	93	84
CCC1(CC)COC2(OC1)C(=O)Nc1ccccc12
    -7	105	97	85
Cc1ccc2nc(-c3ccccn3)cc(C(=O)NCc3cnn(C)c3)c2c1
    -10	104	123	104
Cc1cccc(C)c1OCC(=O)N(Cc1ccco1)Cc1ccco1
    -30	100	94	83
CCC(Cc1ccccc1)NC(=O)c1csc2c1CCCCC2 (configuration not stated)
    15	102	89	89
COc1ccccc1NC(=O)C(F)(F)C(=O)Nc1ccccc1OC
    -6	nt	107	87
CCn1cc(C(=O)NCc2ccc(C)cc2)c(=O)c2cc(S(=O)(=O)N3CCC(C)CC3)ccc21
    12	108	89	93
Cn1c(C2=C(O)CN(c3ccccc3)C2=N)nc2ccccc21
    nt	109	107	90
Cc1ccc(NC(=O)Nc2nnc(N3CCCC3)s2)c(C)c1
    -20	99	131	90
CCOC(=O)N1CCC(N/C=C(\C#N)S(=O)(=O)c2cccnc2)CC1
    -26	104	107	89
Cc1ccc2c(CC(=O)Nc3ccc(S(=O)(=O)N4CCCCC4C)cc3)coc2c1C (configuration not stated)
    -4	108	104	102
COC(=O)c1scc(-c2ccc(C)cc2)c1S(=O)(=O)Nc1ccc(OC(F)(F)F)cc1
    nt	100	96	87
O=c1ccc(-c2ccc(Cl)c(S(=O)(=O)N3CCOCC3)c2)n[nH]1
    -70	101	nt	nt
CC(C)CC(=O)n1nc(-c2cccnc2)nc1NCc1ccc(F)cc1
    4	109	97	76
O=S1(=O)CC(O)C(S(=O)(=O)Cc2cccc(C(F)(F)F)c2)C1 (configuration not stated)
    3	104	103	108
Cc1nc2ccccn2c(=O)c1NC(=O)c1ccc(F)c(F)c1
    nt	100&99	104	92
Cc1ccc(NC(=O)/C(C#N)=C/c2ccc(C(C)C)cc2)cc1C
    -52	101	89	87
CCOc1ccc(Nc2nc3cc(Cl)c(Cl)cc3nc2-n2nc(C)cc2C)cc1
    -7	106	107	93
Cc1nc2nc(NC(=O)C(c3ccccc3)c3ccccc3)[nH]n2c(=O)c1C
    nt	107	71	97
Cc1ccc(-n2nc(C)c(C(=O)NCCCN3CCN(c4cccc(Cl)c4)CC3)c2-n2cccc2)cc1
    nt	105	129	39
CN1C(=O)/C(=C2\SC(=O)N(Cc3ccccc3)C2=O)c2cc(Br)ccc21
    3	103	nt	nt
COC(=O)c1c(NC(=O)c2nn(-c3ccc(F)cc3)ccc2=O)sc2c1CCCC2
    -10	104	nt	nt
Cc1nn(CC(=O)NCC(C)c2ccccc2)c(=O)c2cc3ccccc3n12 (configuration not stated)
    -39	95	103	92
